Cruzain noTriton: cruzain (T. cruzi) inhibition without detergent; purified cruzain, Z-FR-AMC fluorescence, no detergent; P25779; AID 1476; 2.3% of 200,000 active; Potency, µM, inactives show max response, negative = inhibition, actives largely listed as inhibitors;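 further: plate controls were enzyme without inhibitor for no effect and buffer without enzyme for full effect; nearly all actives have a fitted effect of over 40% in size; top concentration of the series not given in the record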
Target sequence (P25779 123-467 limits assumed): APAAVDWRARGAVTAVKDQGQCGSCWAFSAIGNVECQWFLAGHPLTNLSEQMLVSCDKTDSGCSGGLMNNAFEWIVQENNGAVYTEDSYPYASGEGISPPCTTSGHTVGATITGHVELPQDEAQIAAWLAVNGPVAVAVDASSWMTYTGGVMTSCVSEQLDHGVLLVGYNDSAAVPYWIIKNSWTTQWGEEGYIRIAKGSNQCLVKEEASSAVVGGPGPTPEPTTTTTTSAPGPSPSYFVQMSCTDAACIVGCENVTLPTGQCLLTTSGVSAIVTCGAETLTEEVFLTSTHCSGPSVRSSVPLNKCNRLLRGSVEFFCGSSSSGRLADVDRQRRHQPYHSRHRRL
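Detergent-free condition (0.00005% Triton X-100) in acetate buffer pH 5.5 with DTT. 1.5 nM enzyme and compound were pre-mixed 15 min, then 2 uM Z-FR-AMC substrate added; reaction progress from fluorescence change between first and third reads (60 s).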
NS1 function inh: influenza NS1 inhibition; S. cerevisiae slowed by influenza A NS1, growth recovery by OD600; Potency, µM (series often up to 46.1 µM), for the others: at the top dose activity, positive = more growth; 0.4% of 270,000 active; AID 2326; active means well fitted rising curve with a large enough effect; inconclusive means small, poorly fitted or top-dose-only effect; inactive means no such curve, though single readings can be large or run the other way; further: nearly all actives have a fitted effect of over 50% in size
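In this qHTS, NS1 from influenza A is expressed in budding yeast, where it slows growth. Cells are switched from glucose to 2% galactose medium (pH 6.0, -URA), treated with compound, and growth recovery is read at OD600.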
SARS PLpro yeast: SARS-CoV PLP inhibition in yeast; S. cerevisiae expressing SARS-CoV PLpro, growth rescue; control for the full effect not named in the record; Potency, µM (doses to about 32.9 µM), for the others: at the top dose activity, positive = growth rescue; 0.19% of 330,000 active; AID 485353; active means well fitted rising curve with a large enough effect; inconclusive means small, poorly fitted or top-dose-only effect; inactive means no such curve, though single readings can be large or run the other way; further: 0% is about no effect; nearly all actives have a fitted effect of over 55% in size; growth read by luminescence after 48 h
LASV entry inh: blocks Lassa virus binding to or entry into cells; Lassa virus pseudotype entry inhibition, cell reporter; control for the full effect not named in the record; Potency, µM (doses to about 37.9 µM), for inactives: top-dose activity change, negative = inhibition, usual class: inhibitors; 1.2% of 300,000 active; AID 540256; active means well fitted inhibition curve with a large enough effect; inconclusive means small, poorly fitted or top-dose-only effect, or effect the other way; inactive means flat fitted curve, though single readings scatter; tested in HEK293 cells; further: on the % scale 0 is the no-effect control and ±100 the full control effect; nearly all actives have a fitted effect of over 50% in size; luciferase read-out
Cruzain Triton: blocks cruzain activity in presence of Triton detergent. purified cruzain, Z-FR-AMC fluorescence, 0.01% Triton. Potency, µM, inactives show max response, negative = inhibition, usual class: inhibitors. 0.43% of 200,000 active;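 further: plate controls were neutral wells for no effect and buffer without enzyme for full effect; nearly all actives have a fitted effect of over 40% in size; top concentration of the series not given in the record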
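Sodium acetate buffer (100 mM, pH 5.5) containing 5 mM DTT and 0.01% Triton X-100 hosted 1.5 nM cruzain and test compound for 15 min at room temperature. Cleavage of 2 uM Z-FR-AMC was then tracked by fluorescence.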
RE007 growth inh: less growth of the S. pombe RE007 Vpr strain; S. pombe RE007 Vpr strain, BacTiter-Glo ATP luminescence, 24 h; control for the full effect not named in the record; Potency, µM (doses to about 92.2 µM), for the others: top-dose activity change, negative = less growth; 0.21% of 360,000 active; AID 651644; active = well fitted falling curve with a large enough effect; inconclusive = small, poorly fitted or top-dose-only effect; inactive = no such curve, though single readings can be large or run the other way;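 further: on the % scale 0 is the no-effect control and ±100 the full control effect; nearly all actives have a fitted effect of over 50% in size; the assay follows cell death caused by Vpr and the record does not say whether a fall means rescue or toxicity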
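Fission yeast strain RE007, carrying one chromosomally integrated HIV-1 vpr copy, was seeded at OD 0.01 in PMG+AL medium with 23 nL pinned compound. After 24 h at 30 °C and 99% humidity, viability was read by BacTiter-Glo luminescence.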
MARV entry inh: Marburg virus entry inhibition; Marburg virus pseudotyped entry inhibition, cell reporter; control for the full effect not named in the record; about a third of the inactives were read at about 46 µM; 1.8% of 300,000 active; Potency, µM (doses to about 37.8 µM), without a hit: at the highest dose activity change, negative = inhibition, usual class: inhibitors; AID 540276; active = well fitted inhibition curve with a large enough effect; inconclusive = small, poorly fitted or top-dose-only effect, or effect the other way; inactive = flat fitted curve, though single readings scatter; tested in HEK293 cells; about a fifth of its hits are not listed in these tables; further: on the % scale 0 is the no-effect control and ±100 the full control effect; luciferase read-out
2A StopGo: FMDV 2A StopGo reporter, luciferase signal | 1.2% of 410,000 active | AID 1159524 | human cells with a luciferase reporter of 2A StopGo recoding; control for the full effect not named in the record | Potency, µM (series often up to 57.9 µM), for the others: at the top dose signal change, negative = less light; active = well fitted falling curve with a large enough effect; inconclusive = small, poorly fitted or top-dose-only effect; inactive = no such curve, though single readings can be large or run the other way; tested in HEK293T cells; further: on the % scale 0 is the no-effect control and ±100 the full control effect; nearly all actives have a fitted effect of over 45% in size; luciferase light after 4 h
The depositor's hits bear a star; u = inconclusive; x = not tested or not shown; & = joins results of further samples; [ ] = another dose, or the depositor's remark. Unless noted, the call rests on the fitted dose curve; in most records, active means well fitted curve in the direction sought with a large enough effect; inconclusive means small, poorly fitted or top-dose-only effect, or another doubt; inactive means no such curve, though single readings can be large; an effect the other way counts as inactive or inconclusive. Potency means the concentration at half of the fitted maximal effect.

SMILES	Cruzain noTriton	NS1 function inh	SARS PLpro yeast	LASV entry inh	Cruzain Triton	RE007 growth inh	MARV entry inh	2A StopGo
CCN(CC)S(=O)(=O)N1CCC(C(=O)NCCN2CCOCC2)CC1	-6%	-3%	3%	2%	6.1%	-8%	1%	-20%
COc1cccc(C(=O)c2ncc(C(F)(F)F)cc2Cl)c1	x	x	-1%	-1%	x	5%	28%[46.1 µM]	35%[activator]
CCCC(=O)NC(=S)Nc1cccc(-c2nc3ncccc3o2)c1	x	12%	1%	26%[46.1 µM]	x	4%	-1%[46.1 µM]	0%
COc1ccc(-c2oc3ccccc3c(=O)c2OC(=O)c2ccc(C)cc2)cc1	8%	5%	-5%	5%	3.2%	7%	-18%	16%
COc1ccc2c(c1O)-c1c(OC)c(OC)cc3c1[C@H](C2)N(C)CC3	2%&6%	x	x	x	3.4%&-3.4%	10%[18.4 µM]	x	0%
Oc1ccccc1/C=N/Nc1ncc(Br)cn1	-13%	-6%	u	-5%	-3.1%	-10%	-24%	49%[activator]
Cc1cc(Oc2nc3ccccn3c(=O)c2/C=C(\C#N)c2nc3ccccc3s2)ccc1Cl	0%	x	x	20%[46.1 µM]	-4.8%	x	-16%[46.1 µM]	-6%
CCOc1ccccc1NC(=O)c1cc(Cl)ccc1NC(=O)c1ccco1	15%	2%	-2%	-26%[14.3 µM]	2.5%	-6%	u	5%
CCOc1ccc2nc(N3CCC(C(=O)Nc4ccc(Br)cc4F)CC3)sc2c1	-3%	x	x	x	-0.7%	x	u	59%[activator]
CCn1c(O)c(/C=N/NC(=O)c2ccccc2)c(=O)[nH]c1=S	x	-5%	1%	x	x	55%	x	11%
Cc1cc(C)cc(C(=O)NC(CC(N)=O)c2ccc(N3CCN(C)CC3)c([N+](=O)[O-])c2)c1 (stereo not drawn)	x	3%	-3%	x	x	0%	x	1%
CC(C)COc1ccc(N)cc1OCC(C)C	x	x	0%	0%	x	-14%	17%[46.1 µM]	-6%
Cc1ccc(CCNC(=O)c2coc3nc4ccccc4nc23)cc1	-9%	-2%	0%	u	-8.1%	17%	-3%	2%
CNC(=S)NNC(=O)c1ccccc1Br	-1%	6%	17%	u	-2.9%	5%	u	5%
CN(C(=O)CN1C(=O)NC(C)(c2cccc(Br)c2)C1=O)C1CCCCC1 (stereo not drawn)	x	x	-10%	-19%	x	7%	12%	u
Nn1c(SCC(=O)NC2CCCCC2)nnc1-c1ccc(Cl)cc1	-1%	-3%	9%	-15%	0.1%	2%	-5%	-22%
COc1ccc(S(=O)(=O)NCc2cccs2)cc1	0%	10%	6%	7%	6.8%	7%	-27%	105%[activator]
COC(=O)c1c(NC(NC(=O)CC(C)C)C(Cl)(Cl)Cl)sc2c1CCC2 (stereo not drawn)	-3%	8%	-79%	-26%	-9.5%	-3%	u	u
O=S(=O)(NC1Cc2ccccc2C1)c1ccccc1	x	-1%	0%	-15%[46.1 µM]	x	0%	0%[46.1 µM]	34%[activator]
Cc1nn(Cc2cccc(F)c2)c(C)c1NC(=O)c1c([N+](=O)[O-])c(C)nn1C	-9%	0%	6%	-10%	1.0%	17%	13%	8%
COC(=O)CCCNC(=O)c1ccccn1	x	1%	4%	u	x	13%	4%[46.1 µM]	6%
Cc1ccc2cc(CN(CCCO)S(=O)(=O)c3cccc4nsnc34)c(=O)[nH]c2c1	4%	u	7%	u	-3.4%	-4%	-3%	-15%
CC(C)CCn1c(=O)c2ccccc2n2c(CCC(=O)NCC3CCCO3)nnc12 (stereo not drawn)	x	7%	2%	x	x	-9%	x	-27%
Cc1cccc(NC(=O)c2ccc3nc(C(C)C)oc3c2)c1C	-6%	x	x	11%[46.1 µM]	-0.3%	x	x	-23%
COc1ccc(OC)c(N(C(=O)c2ccco2)C(C(=O)NC2CCCC2)c2cc(OC)c(OC)c(OC)c2)c1 (stereo not drawn)	x	-10%	0%	u	x	1%	-19%	2%
CCCc1nnc(NC(=O)C(C)N2C(=O)C3C4C=CC(C4)C3C2=O)s1 (stereo not drawn)	-4%	-5%	7%	2%	1.7%	-3%	-1%	-5%
CC(C)(C)NC(=O)Cn1c(SCC(=O)N2CCCCCC2)nc2ccccc21	10%	-5%	1%	-11%	-3.3%	-4%	19%	4%
CCN(C(=O)C(C)N1C(=O)/C(=C/c2ccco2)SC1=S)C1CCS(=O)(=O)C1 (stereo not drawn)	x	26%	-2%	x	x	12%	x	-7%
COc1ccccc1N(CC(O)Cn1ccnc1C)S(=O)(=O)c1ccc(C)cc1 (stereo not drawn)	x	3%	0%	-19%	x	u	u	-11%
Brc1ccc(-c2nnc3n2CCCCC3)cc1	-1%	2%	4%	8%	0.3%	0%	13%	-6%
NC(=O)CSc1nc(-c2ccccc2)nc2c1CCCC2	x	4%	-1%	-1%	x	14%	3%[46.1 µM]	-8%
CCOC(=O)c1ccc(NC(=O)NCCN2CCCCC2)cc1	-4%	-1%	3%	-3%	9.2%	20%	14%	14%
CC(=O)OC[C@H]1COc2ccc3ccccc3c2[C@H]1N(C)C(C)=O	x	x	0%	-21%[46.1 µM]	x	-7%	8%[46.1 µM]	-3%
CCN1CCCn2c1nc1c2c(=O)n(C)c(=O)n1C	13%	23%	1%	-11%	-5.7%	0%	-15%	5%
Cn1c(=O)[nH]c(=O)c2c1nc(NCCCO)n2CCOc1ccccc1	x	2%	0%	12%[46.1 µM]	x	-2%	9%[46.1 µM]	2%
O=C(NCc1cccnc1)c1cnc2sccn2c1=O	-5%	-3%	0%	x	1.3%	5%	x	-14%
CCOc1ccc(-n2cnnn2)cc1S(=O)(=O)NCc1ccccc1	0%	0%	4%	-1%	3.6%	4%	8%	51%[activator]
COc1ccccc1-c1nnc(N)s1	x	2%	0%	30%[46.1 µM]	x	15%	10%[46.1 µM]	-4%
C#CCOc1ccc(/C=C2/C(=O)NN(c3ccccc3)C2=O)cc1OC	x	24%	11%	10%	x	11%	-1%	-12%
CCN=c1scc(C)n1/N=C/c1cc(Br)c(O)c(Br)c1	x	x	-3%	u	x	-24%	u	0%
O=C(NN=C1CCCCCC1)C(=O)Nc1cccc(Br)c1	4%	5%	-21%	-6%	-1.3%	-15%	-4%	125%[activator]
Cc1cc(-n2[nH]c(C)c(C)c2=O)nc(-c2ccccc2O)n1	u	-2%	4%	2%	0.4%	0%	-1%	-14%
COc1ccc(COC(=O)Nc2c(SC)nsc2SC)cc1	x	x	0%	-20%[46.1 µM]	x	8%	6%[46.1 µM]	-19%
CCN(CC)P(=O)(Oc1cccc(C)c1)N(CC)CC	u	-7%	-8%	2%	-4.0%	-1%	-2%	-26%
Cc1nn(C)c(C(=O)NNC(=O)Nc2cccc(C(F)(F)F)c2)c1Cl	x	4%	1%	-3%[46.1 µM]	x	-10%	u	u
Cc1ccc(O)c(NC(=O)CSc2n[nH]c(-c3ccccc3)n2)c1	x	3%	9%	x	x	18%	x	u
CCc1nc(C)cn1S(=O)(=O)c1ccc(Br)cc1	x	-4%	1%	x	x	5%	x	-22%
Cc1ccc(-n2nnc3c(=O)n(Cc4ccccn4)cnc32)cc1C	x	x	5%	8%	x	-4%	8%[46.1 µM]	17%
CCCN(CCC)CCNS(=O)(=O)c1ccc2c(c1)oc(=O)n2C	9%	-3%	u	11%	3.5%	-25%	12%	-5%
CCC(Oc1ccc2c(c1)C(=O)CC(C)(C)O2)C(=O)NCCN1CCCCCC1 (stereo not drawn)	-7%	-3%	3%	29%	-24%	-9%	-22%	-24%
CNC(=S)N/N=C/c1cn(Cc2c(F)cccc2Cl)c2ccccc12	32µM*	20%	u	13%	-6.4%	11%	7%	-26%
O=C(NCCc1c[nH]c2ccccc12)c1ccc2c(c1)OCO2	x	-48%	-6%	-7%[46.1 µM]	x	4%	u	0%
COc1ccc(NC(=O)CC2C(=O)N(c3ccc(C)cc3)C(=O)N2CCc2ccccc2)cc1 (stereo not drawn)	-5%	x	x	u	-5.4%	x	u	-6%
O=C(COc1ccc(Cl)cc1)NCCCn1ccnc1	-13%	-8%	u	2%	0.1%	17%	7%	-12%
Cc1[nH]nc2ncc(C(=O)c3ccccc3O)cc12	u	7%	-2%	2%	-2.0%	-2%	4%	-27%
c1ccc2c(CNn3cnnc3)cccc2c1	-2%	-7%	0%	-2%	-5.8%	8%	-9%	2%
COc1cccc(CC(=O)Nc2ccc(S(=O)(=O)N3CCOCC3)cc2)c1	x	x	-2%	0%	x	3%	3%[46.1 µM]	-5%
CCN(C(=O)c1c(C)cc(=O)oc1C)c1ccc2c(c1)OCO2	1%	3%	7%	0%	0.3%	7%	10%	3%
Cc1ccc(C(=O)N2CCc3cc(CNS(=O)(=O)c4cccs4)ccc32)cc1	u	x	x	u	-0.1%	x	x	-29%
O=C(Nc1ccccc1)N1CCN(c2cccc(C(F)(F)F)c2)CC1	-5%	-8%	-26%	-3%	-12%	9%	u	x

The results go on:
SMILES	Cruzain noTriton	NS1 function inh	SARS PLpro yeast	LASV entry inh	Cruzain Triton	RE007 growth inh	MARV entry inh	2A StopGo
O=CN1CCN(C(=O)c2cccc3c2-c2ccccc2C3=O)CC1	x	1%	-2%	x	x	16%	x	-27%
O=C(Nc1ccc(-c2cn3ccccc3n2)cc1)c1ccco1	-6%	-19%	-62%	u	-8.3%	u	u	u
CCn1c(=O)c(C(=O)NCc2ccc(F)cc2)c(O)c2ccccc21	x	4%	-4%	u	x	-15%	-21%[46.1 µM]	-13%
Cc1ccc(NC(=S)NNC(=S)NCc2ccccc2)cc1	-12%	-18%	-4%	17%	1.3%	-7%	-6%[46.1 µM]	15%
COc1cc(S(=O)(=O)NC2CCSc3ccccc32)ccc1NC(C)=O (stereo not drawn)	x	25%	4%	11%[46.1 µM]	x	-2%	10%[46.1 µM]	4%
Cc1ccc2nc(-c3ccc(Cl)c(NC(=O)COc4cccc(C)c4C)c3)oc2c1	9%	x	x	8%[46.1 µM]	-0.8%	x	u	48%[activator]
Cn1nc(C(=O)OCc2ccc(F)cc2)c2ccccc2c1=O	x	-13%	-6%	9%	x	-2%	-24%[46.1 µM]	0%
